Beta cell apopt – beta cell apoptosis inhibition; INS-1E cytokine-induced death, ATP luminescence, 48 h; percent of positive-control rescue, neutral wells zero; protection from apoptosis, % (concentration not given with the values); actives 0.8% (n = 300,000);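 active = all replicates at 75% or more, or half of them and the mean; inconclusive = half reach 75% but not the mean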;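 note: 0% = cytokine-treated negative control wells and 100% = positive control rescue; higher means more ATP so stronger rescue from cytokine killing; wells of about 40 µL received 100 nL stock; the first replicate is given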
UCH37 DUB inh – human UCH37 deubiquitinating enzyme inhibition; actives 0.33% (n = 330,000); Q9Y5K5; inhibition, % (concentration not given with the values); AID 588478; purified proteasome/UCH37, Ub-AMC cleavage fluorescence;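 active = mean of two replicates above 20%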;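 note: 0% = compound-free wells with enzyme and 100% = wells lacking proteasome; stock transfer was 100 nL into about 20 µL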
Target sequence (Q9Y5K5 whole entry, looked up): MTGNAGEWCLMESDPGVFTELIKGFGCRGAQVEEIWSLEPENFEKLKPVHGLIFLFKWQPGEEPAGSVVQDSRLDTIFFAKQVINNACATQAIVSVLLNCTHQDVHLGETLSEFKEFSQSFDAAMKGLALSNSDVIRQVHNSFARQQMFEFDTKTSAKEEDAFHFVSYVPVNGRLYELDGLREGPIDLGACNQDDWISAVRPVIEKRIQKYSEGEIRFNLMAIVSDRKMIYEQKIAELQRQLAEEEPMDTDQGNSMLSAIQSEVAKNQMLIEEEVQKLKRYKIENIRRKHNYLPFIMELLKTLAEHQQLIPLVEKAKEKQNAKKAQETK
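Test system – human UCH37 enzyme supplied as purified proteasome complex · Incubation – 30 min preincubation with enzyme, 25 min cleavage at room temperature · Detection – AMC fluorescence from Ub-AMC cleavage, excitation 355 nm, emission 460 nm · Benchmarks – no-proteasome wells (full inhibition) and compound-free wells (no inhibition)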
Beta2AR agonist – human beta-2 adrenergic receptor agonism by FAP. Am2.2-beta2AR cells, FAP receptor internalization, flow cytometry; reference of the scale not given here. P07550. response, % (concentration not given with the values). actives 0.43% (n = 340,000);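 active = response above a set limit, near 3 SD of response in nonfluorescent compounds, cut at about 42% in these data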;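 note: stock transfer was 100 nL into about 11 µL; a reference agonist was the positive control; negative values mostly stem from fluorescent compounds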
Target sequence (P07550 whole entry, looked up): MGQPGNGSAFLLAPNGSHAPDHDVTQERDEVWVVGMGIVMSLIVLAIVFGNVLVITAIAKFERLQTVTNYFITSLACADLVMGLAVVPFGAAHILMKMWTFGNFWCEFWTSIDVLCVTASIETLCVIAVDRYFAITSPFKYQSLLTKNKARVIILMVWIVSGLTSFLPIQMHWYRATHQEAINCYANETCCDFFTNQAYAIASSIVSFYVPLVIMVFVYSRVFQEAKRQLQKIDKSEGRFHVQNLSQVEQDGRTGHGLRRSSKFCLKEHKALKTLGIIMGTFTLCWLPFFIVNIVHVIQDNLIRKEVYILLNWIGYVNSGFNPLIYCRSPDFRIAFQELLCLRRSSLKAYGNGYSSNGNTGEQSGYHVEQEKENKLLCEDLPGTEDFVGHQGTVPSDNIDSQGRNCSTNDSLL
LANA-H2A inh – blocks KSHV LANA binding to histone H2A/H2B | Q9QR71 | cell-free LANA-H2A/H2B peptide, fluorescence polarization | inhibition, % (concentration not given with the values) | AID 2629 | actives 0.6% (n = 320,000); in the data active = inhibition mostly above about 10%, no sharp cut-off; inactive = mostly below about 6.7%;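 note: stock transfer was 7.5 nL into about 10 µL; 0% = median of vehicle wells and 100% = median of positive control wells; one replicate is shown; the record names a cut of 25% in any replicate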
A1 inh – inhibitors of the anti-apoptotic protein A1, read as caspase activation; MEF A1-2A-BIM cells, Caspase-Glo 3/7 luminescence, 3 h; percent of clofoctol response, vehicle zero; caspase activation, % (no concentration beside the values); actives 0.066% (n = 330,000); AID 2462;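 active = over half of replicate activation scores above 10%, or exactly half above 10 with the replicate mean above 10; inconclusive = replicate mean below 10 yet half the replicates above 10; inactive = over half of replicates below 10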;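 note: wells of about 30 µL received 50 nL stock; many hits fall short of the cut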
Calb FLC – C. albicans growth modulation with fluconazole. actives 0.57% (n = 300,000). growth inhibition, % (concentration not given with the values). AID 1979. C. albicans CaCi-2 (fluconazole-resistant clinical isolate) + fluconazole, Alamar Blue growth, 48 h;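 active = most replicates above 75%; inconclusive = exactly half above 75%; inactive = most below 75%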;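 note: all wells also contain fluconazole at 8 µg/ml as a sub-toxic cotreatment; 0% = median of DMSO wells and 100% = median of geldanamycin control wells; wells of about 8 µL received 7.5 nL stock; the first replicate is given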
T cruzi inh – blocks replication of Trypanosoma cruzi. T. cruzi beta-gal in NIH3T3, luminescence, 90 h. inhibition, % (concentration not given with the values). actives 1.4% (n = 300,000). AID 1885;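 active = mean inhibition across valid replicates above about 55%, limit read from the data; inconclusive = mean below that limit but half or more replicates reach it; inactive = mean below it, under half of replicates reach it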;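 note: signal also drops with host cell toxicity which is not excluded here; 0% = plate median of DMSO wells and 100% = zero luminescence signal; higher percent means less beta-gal luminescence so fewer parasites; stock transfer was 50 nL into about 50 µL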
RanGTP-Impb inh – inhibitors of RanGTP-importin-beta interaction, primary screen, biochemical, FRET, CFP-Ran, YFP-importin-beta, homogeneous; cell-free CFP-Ran/YFP-importin-beta FRET ratio; inhibition, % (concentration not given with the values); actives 1.1% (n = 300,000); AID 2216;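 active = most replicates above 15%; inconclusive = exactly half above 15%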;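 note: 0% = DMSO wells and 100% = Ran loaded with GDP instead of GTP; wells of about 40 µL received 100 nL stock; the first replicate is given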
* hit, by the source's call; i = inactive; ? = inconclusive; . = no result given. An unsorted share of the library. About 4.3% of those tested had a hit in this group.

Compound	Beta cell apopt	UCH37 DUB inh	Beta2AR agonist	LANA-H2A inh	A1 inh	Calb FLC	T cruzi inh	RanGTP-Impb inh
Cc1ccc(C)c(OCCNc2ccc([N+](=O)[O-])cn2)c1	-4	3.9	-3	-0.6	-0.3	-9	6	2.8
CC1CCN(C(=O)CSc2nnc(Cn3c(=O)sc4ccccc43)n2C)CC1	-3	0.9	-4	-5.6	0.9	-2	6	?
COc1ccc(CNC2CCCCC2C)c(OC)c1 (stereo unspecified)	6	-295	-4	-12	0.6	.	.	.
Cc1ccc(C)c(S(=O)(=O)Nc2cc3c4c(c2)CC(=O)N4CCC3)c1	3	2.9	-2	6.2	0.5	17	2	0.9
Cc1ccc(NC(=O)COC(=O)c2ccc[n+]([O-])c2)c(Br)c1	-4	1.5	13	1.2	-0.3	.	.	.
COC(=O)CCc1ccc(O)cc1	.	1.0	-2	2.7	0.2	-5	-8	6.1
CCC(C)(C)NC(=O)C(c1ccc(C)cc1)N(Cc1cccnc1)C(=O)c1csnn1 (stereo unspecified)	-1	2.5	-2	-9.1	-1.0	4	-1	2.0
CCCC[C@@H]1CNCCN1CCc1cccc2ccccc12	1	2.8	38	-1.6	2.4	-6	28	-0.8
O=c1[nH]nc(-c2ccc(F)cc2)cc1Cc1cccs1	.	6.6	2	5.9	0.3	-10	1	-1.1
Cc1nc2nc(C)c(CCC(=O)Nc3ccc4c(c3)OCO4)c(C)n2n1	1	1.6	-9	-3.1	0.6	-24	-13	?
COc1cccc(CNC(=O)CCn2ccc3cc(S(=O)(=O)N4CCCC4)ccc32)c1	-1	6.1	-22	-0.9	0.6	-7	7	0.6
COc1ccccc1N(CC(=O)NC1CCCC1)C(=O)c1csnn1	.	0.9	8	1.9	-0.5	0	-4	-1.3
O=C(CN1CCN(S(=O)(=O)c2ccc(Br)cc2)CC1)N/N=C/c1cccnc1	0	.	1	0.7	-0.3	-8	5	0.3
CN(C(=O)c1ccc2c(c1)OCO2)C1(C(=O)NC2CCCC2)CCCCC1	2	1.8	-2	3.9	-0.9	-4	13	-0.2
CCc1ccc(/C=C/C(=O)c2ccc(S(=O)(=O)N(C)C)cc2)cc1	9	2.0	19	0.5	-0.7	-5	0	0.3
NC(=O)c1ccc(N=Cc2c(O)ccc3ccccc23)cc1	52	.	0	-0.8	-0.7	-3	-8	-1.0
CCc1ccc(NC(=O)CSc2nc3ccccc3c(=O)n2CCCC(=O)N2CCCC2)cc1	.	4.6	-3	1.9	0.6	3	3	-0.4
CCOC(=O)c1ccc(NC(=O)CSC2=NC(=O)C(CC)C(=O)N2)cc1 (stereo unspecified)	-2	8.9	6	3.8	0.2	-5	-15	-9.3
Cc1noc(C)c1CSc1nnc(-c2ccncc2)n1-c1ccc(Cl)c(Cl)c1	4	4.1	3	0.6	-0.1	-5	15	-1.4
CN1CCOc2cc(S(=O)(=O)NCc3ccc(S(N)(=O)=O)cc3)ccc21	1	1.5	-1	9.6	-0.5	-4	-1	-1.5
Cc1cc2ccccc2n1CCNC(=O)COc1ccccc1	4	0.0	1	-1.8	-0.1	-7	58*	5.1
O=C(Nc1ccc(Cl)cc1)c1cc(-c2cccs2)on1	0	-3.8	1	4.2	0.1	-4	-3	2.5
O=C1CCC2c3ccc4ccccc4c3CCN12 (stereo unspecified)	3	-9.8	1	-3.6	1.0	19	11	3.4
O=C(N/N=C/CCc1ccccc1)c1ccccc1	-12	.	-4	-1.8	0.1	-7	-4	-6.8
COc1ccc(CC(=O)NNC(=O)c2nn(Cc3ccccc3)c(=O)c3ccccc23)cc1OC	0	5.9	0	-1.0	-0.3	9	-11	1.3
Cc1ccc(S(=O)(=O)CCC(=O)Nc2ccc(S(=O)(=O)N(C)C)cc2)cc1	-2	1.4	.	-7.8	0.4	-1	16	1.5
Cc1nn(C)c(N)c1[N+](=O)[O-]	-7	7.6	-4	5.4	-0.5	5	-9	-2.6
Cc1ccc(S(=O)(=O)c2nc(NN(C)C)sc2Cl)cc1	-5	0.5	-3	-1.1	0.9	-15	21	5.0
Cc1ccc(NS(=O)(=O)c2ccc(C(=O)NCCCN3CCOCC3)cc2)cc1	-6	-0.4	-2	-5.3	0.0	22	2	0.7
Cc1cc(NC(=O)c2cc(-c3cccc(Cl)c3)on2)no1	-11	3.0	4	-2.6	0.3	2	0	2.4
COC(=O)c1ccc(OCC(O)CNC2CCCC2)cc1 (stereo unspecified)	-2	3.0	-9	-2.9	0.3	0	1	-0.5
Cc1ccc(Nc2cc(=O)[nH]c(=O)[nH]2)c(C)c1	-5	-2.0	7	5.2	-0.3	1	-16	-0.1
O=C(NCCCN1CCCCCC1)c1ccc2c(Cl)c3c(nc2c1)CCCC3	4	1.2	2	2.1	0.0	26	7	2.4
Cc1cc(C)cc(NC(=O)CN(C)CC(=O)N(CC(C)C)c2c(N)n(CC(C)C)c(=O)[nH]c2=O)c1	-5	3.2	1	3.1	0.3	.	.	.
CCOc1ccccc1N1CC(C(=O)Nc2cccc(S(=O)(=O)N3CCCCC3)c2)CC1=O (stereo unspecified)	2	0.1	4	-1.6	0.2	3	-1	-2.6
O=c1cc(-c2ccsc2)oc2cc(-c3ccc4c(c3)OCO4)ccc12	-3	-317	21	-0.9	1.5	.	.	.
CS(=O)(=O)c1ccc(C(=O)Nc2cccc(-c3nc4ccccc4[nH]3)c2)cc1	5	13	18	-8.4	0.5	0	-8	0.2
COc1cc(/C=N/NC(=O)c2ccncc2)ccc1OCc1cnc(Cl)s1	2	.	1	0.1	-0.5	10	-11	5.5
CCOC(=O)c1cccnc1SCC(=O)Nc1ccc(C)cc1	-7	0.6	7	1.5	0.8	0	3	1.0
CC1Cc2ccccc2N1CC(=O)NC(=O)NC1CCCCC1 (stereo unspecified)	9	0.4	-4	11	1.1	22	1	-2.9
CC(NC(=O)C1CCN(C(=O)Nc2ccccc2)CC1)c1ccc(Cl)cc1 (stereo unspecified)	-1	5.0	3	1.3	1.2	.	.	.
CCCCn1c(N)c(N(CC(C)C)C(=O)CCNC(=O)c2ccccc2Cl)c(=O)[nH]c1=O	-3	-0.4	-3	0.6	1.0	0	-1	4.8
CCOc1cc(NC(=O)CC(C)C)c(OCC)cc1NC(=O)CCn1nnc2ccccc21	-12	3.2	-4	2.1	0.0	-7	-12	-1.1
O=C(OCC(=O)N1CCc2ccccc21)c1ccc([N+](=O)[O-])o1	5	8.8	-10	-4.8	1.3	.	.	.
CCC(=O)N1CCN(c2ccc(Cl)cc2NC(=O)c2ccc3c(c2)OCCO3)CC1	-3	5.1	-9	4.7	0.8	90*	13	1.7
CCOc1ccccc1N1CCN(C(=S)Nc2ccc(S(=O)(=O)Nc3ncccn3)cc2)CC1	-7	1.7	-4	-1.5	0.0	-5	2	1.2
c1cncc(-c2nc(NCC3COc4ccccc4O3)c3ccccc3n2)c1 (stereo unspecified)	11	0.6	24	2.0	-1.4	18	49	?
CN(C)C(=O)N1CCC(C(=O)NCc2ccc(F)cc2)CC1	.	9.3	6	-1.3	1.2	-2	0	4.2
CC(C)C(=O)N1CCN(c2ccc(NC(=O)COc3ccccc3[N+](=O)[O-])cc2)CC1	8	-1.2	14	5.3	-0.1	5	-8	-3.6
COC(=O)c1cc(N2CCNCC2)nc2ccccc12	-8	-255	0	7.9	-0.6	-6	5	?
Cc1ncc([N+](=O)[O-])n1CCOC(=O)NC(NCc1ccccc1)C(Cl)(Cl)Cl (stereo unspecified)	-5	-0.7	-4	-1.3	-0.3	-12	12	?
CCOc1ccc(OCC)c(C2C(C#N)=C(N)N(c3cccnc3)C3=C2C(=O)CC(C)(C)C3)c1 (stereo unspecified)	1	6.4	-2	2.8	0.6	-9	-5	4.7
CC(=O)Nc1cc2c(cc1Br)OCCO2	.	2.0	10	-11	0.1	-7	0	-4.6
O=C(NCCCn1ccnc1)/C(=C/c1ccccc1)NC(=O)c1ccccc1	-1	1.7	6	1.3	1.2	-3	-4	-2.6
CN(C)C(=O)COC(=O)c1cc(Cl)cc(Cl)c1N	-9	i	5	3.5	-1.4	3	-6	-1.6
O=[N+]([O-])c1cc(Cl)ccc1Sc1cccc2cccnc12	8	4.7	8	1.2	-0.3	-2	11	-0.1
CC(=O)c1cc(C#N)c(SCCC(C)C)nc1C	2	4.3	-9	-0.3	0.8	-2	31	3.6
O=C(COc1ccc(Cl)cc1)NCc1ccccc1	-1	5.6	-10	-2.4	0.4	-5	-16	3.0
CCn1c(SCc2ccccc2F)nnc1-c1ccncc1	2	3.2	5	1.7	-0.3	-8	-8	-3.7
COc1cccc(NC(=O)C(Cc2ccccc2)NC(=O)C2CCC(C)CC2)c1 (stereo unspecified)	0	4.3	11	-5.6	-0.8	-10	15	2.0

The list continues:
Compound	Beta cell apopt	UCH37 DUB inh	Beta2AR agonist	LANA-H2A inh	A1 inh	Calb FLC	T cruzi inh	RanGTP-Impb inh
CCOc1ccc(C2=C/C(=C/c3cccnc3)C(=O)O2)cc1	0	-9.4	-6	4.3	-0.2	-2	-17	29*
CC1=C(C(=O)N(C)C)C(c2ccc(Cl)c(Cl)c2)NC(=O)N1 (stereo unspecified)	-19	1.6	1	-1.7	0.2	-2	1	-1.7
CCC[C@H](CN[C@@H](CNC)[C@H](C)O)NCCc1ccc(OC)cc1	2	4.4	2	-2.7	-1.5	-7	12	-3.7
Cn1nc(C(=O)OCC(=O)NCc2ccc(Cl)cc2)c2ccccc2c1=O	-3	1.3	0	0.7	-0.5	.	.	.
Cc1[nH]c2ccc(-c3nnc(SCC(=O)c4ccc(F)cc4)o3)cc2c1C	.	-2.3	-1	2.4	0.3	9	33	3.5
O=C(Oc1cc(Cl)ccc1Cl)C1=CC=CN2CCS(=O)(=O)N=C12	-4	-49	-1	-0.7	0.2	.	.	.
CCC(C)N1C(=O)CCC1C(=O)N1CCN(c2ccc(F)cc2)CC1 (stereo unspecified)	-5	1.4	0	-0.6	0.5	-2	11	3.3
CCCOc1ccc(C(F)(F)F)cc1NC(=O)CCc1c(C)noc1C	-2	2.6	-1	6.0	1.3	.	.	.
CC(=O)N1CCN(c2cc(N3CCCC3)c(F)cc2[N+](=O)[O-])CC1	6	15	0	0.2	0.5	2	7	-2.1
CN(CCOc1ccccc1)CC(=O)Nc1ccc(S(=O)(=O)N2CCCC2)cc1	-2	8.9	0	-0.2	0.1	-1	57*	5.2
O=C(N/N=C/c1ccccn1)c1ccc(S(=O)(=O)N2CCCCCC2)cc1	0	.	-12	-7.9	1.0	-8	5	3.8
CCOc1ccc2ccccc2c1CNc1nnnn1C	-2	0.9	1	-8.5	-0.5	13	-7	-3.1

Screens: PubChem BioAssay, several laboratories
